Vaccinia mCherry = inhibitors of vaccinia virus infection (mCherry reporter signal) | 310,000 tested, 0.63% active | Potency, µM (series often up to 36.5 µM), for the others: top-dose activity change, negative = inhibition, hits mostly inhibitors | Vaccinia virus mCherry reporter infection, fluorescence; about a quarter of the inactives have no number; active = well fitted inhibition curve with a large enough effect; inconclusive = small, poorly fitted or top-dose-only effect; inactive = no such curve, though single readings can be large or run the other way; tested in A549 cells; also: nearly all actives have a fitted effect of over 35% in size; inactives centre near -10
VACV Venus inh = inhibitors of vaccinia virus (Venus reporter) | Vaccinia virus Venus reporter expression, fluorescence | Potency, µM (titrated, usually from 36.5 µM), inactives show at the top dose activity change, negative = inhibition, most hits filed as inhibitors | 330,000 tested, 0.46% active; active means well fitted inhibition curve with a large enough effect; inconclusive means small, poorly fitted or top-dose-only effect; inactive means no such curve, though single readings can be large or run the other way; tested in A549 cells; also: nearly all actives have a fitted effect of over 30% in size; inactives centre near -10
The depositor's hits bear a star; i = inactive; ? = inconclusive; / = not tested or not shown; & = joins results of further samples; [ ] = dose if it differs, or a comment. % is scaled to controls: 0 for no effect and ±100 for the full control effect; potency is read from the fitted curve at half-maximal effect. Outcome played no part in choosing rows (roughly 0.82% active in at least one column).

Compound,Vaccinia mCherry,VACV Venus inh
O=C1Nc2cc(Cl)c(Cl)cc2N(O)N1c1ccc(Cl)cc1,-10.6%,-7.7%
COC(=O)C1=C(c2ccc(OC(F)(F)F)cc2)C[C@@H]2CC[C@H]1N2C(=O)NCCO,-18.9%,-6.1%
Cc1cccc(NC(=O)c2ccccc2OCC(=O)c2ccc(F)cc2)c1,-10.4%,-4.7%
CN1C(=O)c2cccc(NCCCCCCN3C(=O)c4ccccc4C3=O)c2C1=O,/,13.2%
COc1ccc(C(CNC(=O)COc2ccccc2OC)N(C)C)cc1OC (stereo not given),-2.7%,-4.0%
COC(=O)c1nnn(CC(=O)Nc2ccc(Br)c(C)c2)c1N,-0.3%,-3.4%
O=C(O)c1ccc(-c2ccco2)n1Cc1ccccc1,/,-2.3%
O=C(CO)c1c[nH]c2ccccc12,-3.1%,-16.6%
CCN(CC)S(=O)(=O)c1ccc2[nH]c(=O)cc(C(=O)Nc3ccc(C)c(S(=O)(=O)N(CC)CC)c3)c2c1,?,-14.1%
Nc1ccc(C(=O)O)c(O)c1,-13.5%,-0.4%&-15.9%&-6.3%&-11.3%
O=S(=O)(NCC1CC1)c1ccc(F)c(Cl)c1,-0.7%,-10.0%
O=C(CC1CCCC1)NCCS(=O)(=O)N1CCN(c2ccc(F)cc2)CC1,-25.1%,-17.6%

Following part:
Compound,Vaccinia mCherry,VACV Venus inh
CCCCCCCCNC1=CC(=O)CC(C)(C)C1,i[7.34 µM],-4.5%[7.34 µM]
Cc1ccc(OCc2nnc(SCC(=O)CC(=O)Nc3ccccc3)o2)cc1,-11.2%,-3.4%
Nc1c(C=C2C=CC(=O)C=C2)c(=O)nc2sc(CC(=O)N3CCCC3)nn12,-16.6%,-6.2%
Cn1nnnc1SCCCNCc1ccc(-c2ccc(F)c(Cl)c2)o1,-9.7%,-9.4%
C=CCNC(=S)N1CCN(c2ccc([N+](=O)[O-])cc2)CC1,?,-23.9%
CC1=C(C(=O)Nc2ccccc2C)C(c2ccccn2)n2ncnc2N1 (stereo not given),1.5%,6.2%
C/C(CC(=O)Nc1ccc(Cl)c(C(F)(F)F)c1)=N\NC(=O)c1cccc(O)c1,-14.2%,-4.9%
CCCCn1c(N)c(N(CC(C)C)C(=O)CSc2n[nH]c(-c3ccc(C)cc3)n2)c(=O)[nH]c1=O,-15.0%,-12.3%
CCCCC(c1nnnn1CS(=O)(=O)c1ccc(C)cc1)N1CCC(C(N)=O)CC1 (stereo not given),-2.4%,-5.0%
Cc1cc(OCC(=O)Nc2ccccc2C(N)=O)c2c(C)cc(=O)oc2c1,-1.1%,-6.1%
C[C@]12CC(O)C3C(CCC4=CC(=O)CC[C@@]43C)C1CCC2c1csc(-c2ccccc2)n1 (stereo not given in full),-6.7%,-29.8%
COc1cc(Br)c(C(=O)c2nccc3cc(OC)c(OC)cc23)cc1OC,i,-13.4%

Going on with the list:
Compound,Vaccinia mCherry,VACV Venus inh
Cc1ccc(OCC(=O)Nc2c(C)nn(-c3ccccc3)c2C)c(Br)c1,i,-19.9%
C[C@H]1CCCC(=O)CCC/C=C/c2cc(O)cc(O)c2C(=O)O1,-10.9%,-8.2%
CCOCCCN1C(=O)c2[nH]nc(-c3ccccc3O)c2C1c1ccc(CC)cc1 (stereo not given),?,-24.7%
O=C(Cc1n[nH]c(=O)c2ccccc12)Nc1cc(C(F)(F)F)ccc1-n1cncn1,i,-17.7%
CCCCNC(=O)C1(C)CCC(=O)N1CCOC (stereo not given),10.1%,-7.6%
CCN(C(=O)Nc1ccccc1OC)c1c(N)n(Cc2ccccc2)c(=O)[nH]c1=O,/,3.2%
COc1ccc(NC(=O)c2cc(-c3ccc(C)cc3)on2)cc1,i,-8.9%
CCN(CC)c1ncn(Cc2c(Cl)cccc2Cl)c2ncnc1-2,/,?
Cc1cccc(NC(=O)CC2S/C(=N/c3nccs3)N(C)C2=O)c1 (stereo not given),-1.5%,1.0%
COc1ccc(/C(C)=N/Nc2ncc(Cl)cc2Cl)c(O)c1,?,?
CC(=O)c1ccc(NC(=S)Nc2ccc(N3CCOCC3)cc2)cc1,3.5%,1.0%
O=C(C(c1ccccc1)c1ccccc1)N1CCN(Cc2ccc(Br)cc2)CC1,-6.4%,-7.3%

Record cards, from the list above:
Shown for O=C(C(c1ccccc1)c1ccccc1)N1CCN(Cc2ccc(Br)cc2)CC1 : Vaccinia mCherry = -6.4%; VACV Venus inh = -7.3%
Shown for CCCCNC(=O)C1(C)CCC(=O)N1CCOC (stereo not given) : Vaccinia mCherry = 10.1%; VACV Venus inh = -7.6%

(further entries)
Compound,Vaccinia mCherry,VACV Venus inh
Cc1ccccc1N1C(=O)C2C3CC(=O)C(c4ccccc43)C2C1=O (stereo not given),-10.4%,5.5%
Cc1noc(-c2ccc(-c3noc(-c4cccc(F)c4)n3)cc2)n1,i,-1.2%
O=C(CC1C(=O)NCCN1Cc1cccc(Oc2ccccc2)c1)NCc1cccnc1 (stereo not given),-4.0%,-11.6%
CCc1ccc(NC(=O)CCNS(=O)(=O)c2cccc3nsnc23)cc1,-5.6%,-19.6%
COc1ccc(C(=O)NC2CCCCCC2)cc1S(=O)(=O)N1CCCC1,-2.2%,-12.9%
CCOC(=O)C1=C(COC(=O)/C=C/c2cc(Br)ccc2F)NC(=O)NC1C (stereo not given),-12.2%,-21.4%
CCN1C(=O)[C@@H]2[C@@H]3CN(S(=O)(=O)c4ccc(C)cc4)[C@@H](c4ccccc4F)[C@@H]3C(=O)C[C@@H]2C1=O,1.9%,2.4%
Cc1cccc(CN(C)C[C@H]2OCc3cnnn3CCCC(=O)N([C@H](C)CO)C[C@@H]2C)c1,-11.5%,-13.4%
Cc1ccc(C2N=C(N)Nc3nc4ccccc4n32)cc1 (stereo not given),0.9%&-7.9%,-18.6%&-8.8%
CCOc1ccccc1CNCc1ccc(F)cc1,-17.1%,-17.3%
CCOC(=O)N/N=C/c1ccc(OC)c(O)c1,-5.1%,-2.8%
Cc1onc(-c2c(Cl)cccc2Cl)c1CO/N=C(\C#N)c1c(Cl)cccc1Cl,-2.8%,-2.1%

Additional results follow.
Compound,Vaccinia mCherry,VACV Venus inh
C/C=C\C(=O)Nc1cccc(C2=NOC3(C2)C[C@@H](C(N)=O)N(C(=O)c2ccc(Cl)cc2)C3)c1 (stereo not given in full),i,-19.7%
COc1ccc(CCNC(=O)CSc2nc(-c3ccco3)cc(C(F)(F)F)n2)cc1OC,-1.4%,0.0%
CCC1(c2ccc(F)cc2)NC(=O)N(CC(=O)c2ccc[nH]2)C1=O (stereo not given),-14.0%,-9.7%
Clc1cccc(Cc2c(-c3cccc(Br)c3)nc3ccc(Br)cn23)c1,i,-7.6%
O=C(O)/C=C/C(=O)NC1CCC(CC2CCC(NC(=O)/C=C/C(=O)O)CC2)CC1 (stereo not given),-11.9%,-10.3%
Cc1cc(S(=O)(=O)Nc2ccc(C(=O)NCc3cccnc3)cc2)ccc1F,-19.9%,-11.1%
Cc1ccc(C)c(NC(=O)CN2C(=O)COc3ccc(Cl)cc32)c1,-14.4%,-13.1%
COc1cccc(CCNCc2cccc(C(F)(F)F)c2)c1,-16.1%,-17.9%
O=C(c1ccccc1)c1ccc(OCC(O)CN2CCOCC2)cc1 (stereo not given),-1.2%,-16.4%
Cc1noc(C)c1NC(=O)Nc1cccc2c1O[C@H](CN(C)C(=O)Nc1ccc3c(c1)OCO3)[C@@H](C)CN([C@H](C)CO)C2=O,i,-3.8%
COc1ccc(OC)c2[nH]c(=O)c(CCNS(=O)(=O)c3ccc(C)cc3)cc12,-1.1%,-12.7%
Cc1cc2nnc(SCC(=O)Nc3cc(S(=O)(=O)N4CCOCC4)ccc3Cl)n2c2ccccc12,?,?

(listing goes on)
Compound,Vaccinia mCherry,VACV Venus inh
Cc1cc(C)c(C)c(S(=O)(=O)NNC(=O)c2cccc(S(=O)(=O)N3CCOCC3)c2)c1C,i,-6.0%
Cn1c(-c2sc3cc(C(F)(F)F)cnc3c2-c2cccnc2)n[nH]c1=S,-5.5%,-16.1%
COCCn1c(SC2CCOC2=O)nc2ccccc2c1=O (stereo not given),3.7%,-5.3%
CCOC(=O)N1CCC(N2Cc3cccc(C(=O)N4CCN(c5cccc(C)c5C)CC4)c3C2=O)CC1,-4.8%,-22.3%
Cc1ccc(NC(=O)c2ncn(CCCN3CCN(c4ccccn4)CC3)n2)cc1C,?,-26.4%
CN(C)Cc1c(C(=O)N/N=C/c2ccccc2OCc2ccc(F)cc2)nnn1-c1nonc1N,-9.4%,-9.8%
CCOC(=O)c1cnn(Cc2cccc(Cl)c2)c1C,-10.5%,-4.5%
Cc1noc2ncnc(Oc3ccc(Cl)cc3Cl)c12,-7.0%,-6.8%
CCOc1ccc(OCC)c(S(=O)(=O)NCc2cccnc2)c1,/,-3.6%
COc1ccc(NC(=O)C2CCCN(S(=O)(=O)c3cccc4nonc34)C2)c(OC)c1 (stereo not given),-20.0%,-8.1%
COCCCNC(=S)NCCNc1nc2cc(C)c(C)cc2cc1C#N,?,?
O=C(c1nsnc1-c1ccccc1O)N1CCCCC1,2.1%,-1.4%

Later entries.
Compound,Vaccinia mCherry,VACV Venus inh
Cc1nc(-c2ccc(S(=O)(=O)N3CCN(c4cccc(C)c4C)CC3)cc2)co1,-4.9%,-13.2%
COCCNC(=O)Cn1c(=O)n(CCCCCC(=O)NCc2ccccc2Cl)c(=O)c2sccc21,-19.9%,-22.6%
CCCCOC(=O)c1ccc(NC(=O)c2ccc(F)cc2F)cc1,i,-5.3%
Cc1cc(=O)oc2cc(NC(=O)CC3(CC(=O)O)CCCC3)ccc12,-6.4%,-12.6%
CCOc1ccccc1NC(=O)CSc1ncc2c(n1)-c1ccccc1N(CC)S2(=O)=O,-4.4%,0.7%
O=C(CC(Nc1ccc(Cl)cc1)C(=O)O)c1ccccc1 (stereo not given),i,-5.9%
CCN(CC)C(=O)c1ccccc1NC(=O)c1ccccc1C,-4.6%,-3.0%
COc1ccccc1Cn1c(CNS(=O)(=O)c2ccc(C(C)C)cc2)nc2cccnc21,-10.4%,-8.6%
COc1ccc(OCc2nc(C#N)c(N3CCN(c4ccc(OC)cc4)CC3)o2)cc1,-20.9%,-9.0%
Cn1c(=O)oc2cc(S(=O)(=O)N3CCN(c4ccc(F)cc4)CC3)ccc21,/,-25.3%
Cc1ccc(NC(=O)C[n+]2cc(-c3ccc(C)cc3)n3c2CCC3)cc1,-1.8%,-14.9%
CCCCCCSc1nnc2[nH]c(=O)cc(N)n12,-3.7%,-7.3%
N#CCCNC(=O)Cn1c(COc2ccc(Cl)cc2)nc2ccccc21,-1.1%,-5.0%
O=C(/C=C/c1ccccc1Cl)N(Cc1ccc(Cl)cc1)C1CCS(=O)(=O)C1 (stereo not given),i,-21.2%

Of the compounds above, 19 contain fluorine.
Compound,Vaccinia mCherry,VACV Venus inh
COC(=O)C1=C(c2ccc(OC(F)(F)F)cc2)C[C@@H]2CC[C@H]1N2C(=O)NCCO,-18.9%,-6.1%
Cc1cccc(NC(=O)c2ccccc2OCC(=O)c2ccc(F)cc2)c1,-10.4%,-4.7%
O=S(=O)(NCC1CC1)c1ccc(F)c(Cl)c1,-0.7%,-10.0%
O=C(CC1CCCC1)NCCS(=O)(=O)N1CCN(c2ccc(F)cc2)CC1,-25.1%,-17.6%
Cn1nnnc1SCCCNCc1ccc(-c2ccc(F)c(Cl)c2)o1,-9.7%,-9.4%
C/C(CC(=O)Nc1ccc(Cl)c(C(F)(F)F)c1)=N\NC(=O)c1cccc(O)c1,-14.2%,-4.9%
O=C(Cc1n[nH]c(=O)c2ccccc12)Nc1cc(C(F)(F)F)ccc1-n1cncn1,i,-17.7%
Cc1noc(-c2ccc(-c3noc(-c4cccc(F)c4)n3)cc2)n1,i,-1.2%
CCOC(=O)C1=C(COC(=O)/C=C/c2cc(Br)ccc2F)NC(=O)NC1C (stereo not given),-12.2%,-21.4%
CCN1C(=O)[C@@H]2[C@@H]3CN(S(=O)(=O)c4ccc(C)cc4)[C@@H](c4ccccc4F)[C@@H]3C(=O)C[C@@H]2C1=O,1.9%,2.4%
CCOc1ccccc1CNCc1ccc(F)cc1,-17.1%,-17.3%
COc1ccc(CCNC(=O)CSc2nc(-c3ccco3)cc(C(F)(F)F)n2)cc1OC,-1.4%,0.0%
CCC1(c2ccc(F)cc2)NC(=O)N(CC(=O)c2ccc[nH]2)C1=O (stereo not given),-14.0%,-9.7%
Cc1cc(S(=O)(=O)Nc2ccc(C(=O)NCc3cccnc3)cc2)ccc1F,-19.9%,-11.1%
COc1cccc(CCNCc2cccc(C(F)(F)F)c2)c1,-16.1%,-17.9%
Cn1c(-c2sc3cc(C(F)(F)F)cnc3c2-c2cccnc2)n[nH]c1=S,-5.5%,-16.1%
CN(C)Cc1c(C(=O)N/N=C/c2ccccc2OCc2ccc(F)cc2)nnn1-c1nonc1N,-9.4%,-9.8%
CCCCOC(=O)c1ccc(NC(=O)c2ccc(F)cc2F)cc1,i,-5.3%
Cn1c(=O)oc2cc(S(=O)(=O)N3CCN(c4ccc(F)cc4)CC3)ccc21,/,-25.3%

Source: PubChem BioAssay (National Center for Advancing Translational Sciences (NCATS))
